Sa growth 42C: blocks Staphylococcus aureus growth; S. aureus RN4220 growth, OD600, 20 h, 42 °C; active compounds read low; relative growth, % (concentration not given with the values); actives 0.53% (n = 170,000); AID 720641;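 active = growth at 42 °C up to 50% and 20 or more points under that at 30 °C, or under 10% at both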;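 note: 300 nL library stock went into each well; scaled to the means of positive and negative controls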
GIV-Gai inh: GIV-Galpha-i interaction inhibition; P08753; Galpha-i3/FITC-GIV peptide fluorescence polarization, 90 min; active compounds read low; scaled: aluminum fluoride 0%, vehicle 100%; percent of control (FP), % (no concentration beside the values); actives 0.42% (n = 210,000);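 active = replicate mean at 85% of control or lower, very high polarization wells dropped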;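 note: wells of about 15 µL received 100 nL stock; the first replicate is given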
Target sequence (P08753 whole entry, looked up): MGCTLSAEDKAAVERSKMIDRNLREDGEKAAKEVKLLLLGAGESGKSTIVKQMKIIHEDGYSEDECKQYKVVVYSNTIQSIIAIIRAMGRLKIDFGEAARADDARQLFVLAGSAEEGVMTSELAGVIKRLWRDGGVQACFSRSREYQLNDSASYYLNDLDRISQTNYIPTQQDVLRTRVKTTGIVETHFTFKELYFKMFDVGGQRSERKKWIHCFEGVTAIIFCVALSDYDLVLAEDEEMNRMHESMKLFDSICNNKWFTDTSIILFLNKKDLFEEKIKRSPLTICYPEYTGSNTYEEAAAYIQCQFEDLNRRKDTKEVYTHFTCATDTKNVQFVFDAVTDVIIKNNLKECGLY
HCMV UL50-53 inh: cytomegalovirus nuclear egress complex inhibition. HTRF UL50-UL53 interaction, normalized percent inhibition. inhibition, % (no concentration beside the values). actives 0.15% (n = 190,000). AID 1918969;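 active = both replicates at 50% or more, plus weaker picks with an unusually low signal ratio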;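 note: stock transfer was 100 nL into about 20 µL; 0% = negative control wells and 100% = wells with untagged competitor protein; inactives centre near -12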
Sa growth 42C second temp: recorded beside Sa growth 42C, whose call it bears; relative growth, %; measured here: growth at 30 °C;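 optical density after 20 h as mean of two plates; 100% = untreated growth and lower means inhibition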
Numbers without * were called inactive; nt = not tested or not shown; & = joins results of further samples.

SMILES	Sa growth 42C	Sa growth 42C second temp	GIV-Gai inh	HCMV UL50-53 inh
Cc1ccc(OCC(O)Cn2c(C3CC(=O)N(C(C)(C)C)C3)nc3ccccc32)cc1C (stereo unspecified)	nt	nt	103	-4
CCCCNC(=O)c1cn(C)c(=O)c2cc(OC)c(OC)cc12	99	89	101	-11
Cc1cc(NCCO)n2c(nc3ccccc32)c1C#N	88	92	108	nt
O=C(c1cc(-c2ccc(O)cc2)on1)N1CCCc2ccccc21	129	83	106	3
O=C(Cc1ccccc1)Nc1ccc(N2CCOCC2)c(C(=O)O)c1	104	97	nt	-5
Cc1ccc(CS(=O)Cc2ccc(C(=O)N3CCN(c4ccccc4)CC3)o2)cc1 (stereo unspecified)	98	88	108	-34
NNC(=O)c1ccc2[nH]c3c(c2c1)CCCC3	101	82	98	-44
CCOC(=O)CN1C=NS(=O)(=O)c2ccccc21	100	103	108	-9
Cc1cc(=O)n2nc(N3CCCC(C(=O)N4CCC(Cc5ccccc5)CC4)C3)sc2n1 (stereo unspecified)	nt	nt	106	-20
O=C(Nc1cccnc1)c1c2c(nc3ccccc13)C(=O)N(C1CCCCC1)C2	96	88	104	-31
C=CCOc1ccccc1CNc1ccc(C)cc1	82	86	112	-24
Cc1c(C)n(-c2ccccc2)c2ncn(CCC(=O)NC3CCCc4ccccc43)c(=O)c12 (stereo unspecified)	nt	nt	106	-23
CCCCC1CCC(C(=O)O)CC1 (stereo unspecified)	91	98	nt	-15
COc1ccc(OCC2c3cc(OC)c(OC)cc3CCN2C(=O)C(C)C)cc1 (stereo unspecified)	94	94	103	nt
CCN1C(=O)NC(c2ccc(Cl)cc2)C2=C1CCCC2=O (stereo unspecified)	103	79	100	nt
O=C(Nc1nc(-c2ccc3c(c2)CCN3C(=O)C2CCCCC2)cs1)c1ccco1	98	77	136	-17
COC(=O)c1ccc(CNC(=O)c2cc3c(s2)CCCC3)cc1	108	89	nt	-20
CCc1c(C)nc2ncnn2c1NCc1cc(OC)ccc1OC	nt	nt	103	3
CCN(Cc1ccccc1)S(=O)(=O)c1ccc(S(=O)(=O)N(Cc2ccccc2)Cc2ccccn2)cc1	nt	nt	99	-16
Cc1ccc(C)c(NC(=O)Cn2cc(S(=O)(=O)Cc3cccc(Cl)c3)c3ccccc32)c1	112	91	105	nt
Cc1cc(C)c(C#N)c(SCC(=O)c2cc(C)n(C3CCS(=O)(=O)C3)c2C)n1 (stereo unspecified)	78	90	nt	-28
COc1ccccc1OC(=O)CN1C(=O)c2ccccc2C1=O	105	93	101	-11
Cc1ccc(NC(=S)N2CCC(Nc3nccc(C(F)(F)F)n3)CC2)c(C)c1	100	81	108	-17
CCOC(=O)c1ccc(Nc2c(N)c(=O)oc3ccccc23)cc1	86	83	104	13
CCCOc1ccc(NC(=O)c2cc(=O)n(C)c(=NC)s2)cc1Br	91	85	101	-19

Gathered by group, the compounds so far with a furan ring, fused or not.
SMILES	Sa growth 42C	Sa growth 42C second temp	GIV-Gai inh	HCMV UL50-53 inh
Cc1ccc(CS(=O)Cc2ccc(C(=O)N3CCN(c4ccccc4)CC3)o2)cc1 (stereo unspecified)	98	88	108	-34
O=C(Nc1nc(-c2ccc3c(c2)CCN3C(=O)C2CCCCC2)cs1)c1ccco1	98	77	136	-17

The list continues:
SMILES	Sa growth 42C	Sa growth 42C second temp	GIV-Gai inh	HCMV UL50-53 inh
CC(C(=O)N1CCCC1)N1C(=O)CCCc2ccccc21 (stereo unspecified)	nt	nt	107	-10
CC(OC(=O)c1cccnc1)C(=O)Nc1ccc(Br)cc1 (stereo unspecified)	109	105	nt	8
CCn1c2c(c3cc(Br)ccc31)CCCC2=O	95	87	nt	-14
COc1cccc(C2=NN(C(=O)CCc3ccccc3)C(O)(C(F)(F)F)C2)c1 (stereo unspecified)	nt	nt	100	-12
NC1CCSc2ccccc21 (stereo unspecified)	115	75	103	-15
O=S1(=O)N=C(SCCO)c2ccccc21	102	99	102	-32
COc1ccc(-c2noc(CCCC(=O)Nc3cccnc3)n2)cc1	nt	nt	101	-3
CCOc1ccc(NC(=O)C(C)n2c(=O)cc(C)c3c(C)nn(-c4ccccc4)c32)cc1 (stereo unspecified)	80	92	98	nt
O=C(c1sc2cc(F)ccc2c1Cl)N1CCN(Cc2ccc3c(c2)OCO3)CC1	nt	nt	105	-12
COc1ccccc1NC(=O)c1ccc(C)o1	93	71	103	4
OCCNc1ccc(Cl)cc1	102	90	109	-5
CC1CCN(S(=O)(=O)c2cccc(C(=O)NC3CCS(=O)(=O)C3)c2)CC1 (stereo unspecified)	108	92	100	nt
CCSc1nnc2c(n1)OC(c1ccc(C)cc1)Nc1ccccc1-2 (stereo unspecified)	nt	nt	92	3
CCC(C)(C)C1CCC(=O)C(C2(O)C(=O)N(C)c3ccccc32)C1 (stereo unspecified)	99	97	104	-14
O=C(CCC(=O)N1CCc2ccccc21)N1CCc2ccccc21	127	92	103	-9
N#C/C(=C\c1ccccc1/C=C(\C#N)c1ccc2c(c1)OCO2)c1ccc2c(c1)OCO2	90	64	nt	-13
Cc1ccc(C)c(NC(=O)N2CCSc3nc(C)cc(C)c32)c1	nt	nt	103	-8
COc1cc2c(cc1OC)C(COc1ccc(C(C)C)cc1)N(C(=O)COc1ccccc1)CC2 (stereo unspecified)	111	84	104	nt
CCc1nc(-c2cc(S(=O)(=O)Nc3c(C)n(C)n(-c4ccccc4)c3=O)c(C)s2)no1	nt	nt	101	-30
CC1CCN(CC2CCN(S(=O)(=O)N(C)C)CC2)CC1	nt	nt	101	-29
CC(=O)Nc1sc(C)c(C)c1CN1CCN(S(=O)(=O)c2ccccc2)CC1	95	95	nt	-18
Cc1cccc(OCC(=O)NCCc2ccccn2)c1	104	96	nt	-26
CCC(C(=O)Nc1cc(C(F)(F)F)ccc1Cl)n1nc(C)c2sc3ccccc3c2c1=O (stereo unspecified)	103	96	103	-15
Cn1c(=O)oc2cc(S(=O)(=O)NC3CCCc4ccccc43)ccc21 (stereo unspecified)	109	96	109	-7
CCCCC(NC1CCS(=O)(=O)C1)C(=O)O (stereo unspecified)	80	81	108	-30

Shown with values under each structure: entries from further up.
Screens in order: Sa growth 42C, Sa growth 42C second temp, GIV-Gai inh, HCMV UL50-53 inh
O=C(c1cc(-c2ccc(O)cc2)on1)N1CCCc2ccccc21
    129, 83, 106, 3
Cc1ccc(C)c(NC(=O)N2CCSc3nc(C)cc(C)c32)c1
    nt, nt, 103, -8

(listing goes on)
SMILES	Sa growth 42C	Sa growth 42C second temp	GIV-Gai inh	HCMV UL50-53 inh
COC(=O)C1=C(N)n2c(s/c(=C/c3ccncc3)c2=O)=C(C(=O)OC)C1c1ccncc1 (stereo unspecified)	93	85	101	-20
Cc1ccccc1NC(=O)CCC(=O)O	57	90	106	nt
CN(Cc1ccccc1)c1nnc(N)s1	104	89	103	-24
Cc1ccccc1-c1nc(CN2CCC(C(=O)NCC3CCCO3)CC2)c(C)o1 (stereo unspecified)	120	101	104	-2
COc1ccc(NC(=O)CSc2oc(-c3ccc(F)cc3)nc2S(=O)(=O)c2ccc(C)cc2)c(OC)c1	94	94	107	1
COc1ccc(CNC(=O)c2nc(N3CCOCC3)c3ccccc3n2)cc1	nt	nt	99	-40
Cc1ccc(NC(=O)c2c(NC(=O)Cc3ccccc3)sc3c2CCC3)cc1	96	90	101	-21
Cc1ccc2[nH]c3c(=O)n(CCCN(C)C4CCCCC4)cnc3c2c1	110	85	103	0
COc1ccc(C2C(=O)N(C3CCCCCC3)CC(=O)N2CCC2=CCCCC2)cc1 (stereo unspecified)	102	87	102	nt
CCC(=O)Nc1ccccc1C(=O)OCC(=O)c1ccccc1	103	102	106	6
O=C(CC1C(=O)NCCN1C(=O)c1ccccc1)Nc1cccc(Cl)c1 (stereo unspecified)	105	73	105	nt
COc1ccccc1/C=C/C(=O)OCC(=O)Nc1ccccc1C(C)C	96	97	nt	-14
COc1ccc(C(=O)N[C@H](C(=O)N(C)Cc2ccc(N3CCCCC3)cc2)C(C)C)cc1	92	86	nt	-30
Cc1n[nH]c(=O)c2nc(-c3ccccc3)sc12	125	84	103	-31
O=c1[nH]c(=O)n(C2CCCCC2)c(O)c1C1=Nc2ccccc2SC(c2ccccc2)C1 (stereo unspecified)	77	96	105	3
COc1ccccc1CNC(=O)C1=Cc2cc(C)ccc2OC=C1	nt	nt	105	-38
O=C(Cc1cccs1)Nc1ccc2c(c1)OCCO2	95	77	nt	-16
CCOC(=O)N1CCN(C(=O)C2CCN(c3nc4ccc(CC)cc4s3)CC2)CC1	90	82	108	-28
O=C1CN(C(=O)C2CC2)c2ccccc2N1	100	87	98	-20&-14
NC(=O)COc1ccc(S(=O)(=O)N2CCCC2)cc1Cl	99	97	107	0
S=c1nc(C23CC4CC(CC(C4)C2)C3)[nH][nH]1	91	70	100	-32
O=c1c2cccc3c2c(nn1CCN1CCCCC1)-c1ccccc1-3	99	78	103	-44
COc1ccc(C2CC2/C(C)=N/O)cc1 (stereo unspecified)	nt	nt	101	-8
Cc1c(Cl)cccc1NC(=O)CSc1nnc(-c2ccncc2)o1	nt	nt	100	-33
Cc1c(Cl)cccc1NC(=O)Cn1c(=O)n(CCCCC(=O)NC(C)C)c(=O)c2ccccc21	nt	nt	105	-3

(further entries)
SMILES	Sa growth 42C	Sa growth 42C second temp	GIV-Gai inh	HCMV UL50-53 inh
CSC1=NC(C)(C)CCC12C=CC(=O)C=C2	96	95	101	-1
CC(C)CCNC(=O)c1cc(-c2ccccn2)nc2ccccc12	90	83	99	nt
O=C(c1ccc(F)cc1)C1CCN(CCn2c(=S)[nH]c3ccccc3c2=O)CC1	93	83	nt	-3&-44
Cc1ccccc1OCC(=O)Nc1ccc2[nH]c(=O)sc2c1	102	100	109	-4
N#CCCN(CC1CCCO1)C(=S)Nc1ccc(F)cc1 (stereo unspecified)	93	87	100	-28
CCOC(=O)c1c(-c2ccccc2)n(C)c2ccc(O)cc12	105	110	102	-28
CCC1CN(C(=O)N2CCC(C(=O)NCCc3ccc(Cl)cc3)CC2)c2ccccc2O1 (stereo unspecified)	109	92	106	-8
CCn1cc(S(=O)(=O)c2cccc(C)c2)c(=O)c2cc(F)c(N3CCCCC3C)cc21 (stereo unspecified)	137	88	107	nt
COC(=O)c1c(C)nn(-c2ccc(F)c(Cl)c2)c1-c1cc(C)on1	124	95	112	15

An excerpt of these results, with bars between the fields.
SMILES | Sa growth 42C | Sa growth 42C second temp | GIV-Gai inh | HCMV UL50-53 inh
Cc1ccc(OCC(O)Cn2c(C3CC(=O)N(C(C)(C)C)C3)nc3ccccc32)cc1C (stereo unspecified) | nt | nt | 103 | -4
CCCCNC(=O)c1cn(C)c(=O)c2cc(OC)c(OC)cc12 | 99 | 89 | 101 | -11
Cc1cc(NCCO)n2c(nc3ccccc32)c1C#N | 88 | 92 | 108 | nt
O=C(c1cc(-c2ccc(O)cc2)on1)N1CCCc2ccccc21 | 129 | 83 | 106 | 3
O=C(Cc1ccccc1)Nc1ccc(N2CCOCC2)c(C(=O)O)c1 | 104 | 97 | nt | -5
Cc1ccc(CS(=O)Cc2ccc(C(=O)N3CCN(c4ccccc4)CC3)o2)cc1 (stereo unspecified) | 98 | 88 | 108 | -34
NNC(=O)c1ccc2[nH]c3c(c2c1)CCCC3 | 101 | 82 | 98 | -44
CCOC(=O)CN1C=NS(=O)(=O)c2ccccc21 | 100 | 103 | 108 | -9
Cc1cc(=O)n2nc(N3CCCC(C(=O)N4CCC(Cc5ccccc5)CC4)C3)sc2n1 (stereo unspecified) | nt | nt | 106 | -20
O=C(Nc1cccnc1)c1c2c(nc3ccccc13)C(=O)N(C1CCCCC1)C2 | 96 | 88 | 104 | -31
C=CCOc1ccccc1CNc1ccc(C)cc1 | 82 | 86 | 112 | -24
Cc1c(C)n(-c2ccccc2)c2ncn(CCC(=O)NC3CCCc4ccccc43)c(=O)c12 (stereo unspecified) | nt | nt | 106 | -23
CCCCC1CCC(C(=O)O)CC1 (stereo unspecified) | 91 | 98 | nt | -15
COc1ccc(OCC2c3cc(OC)c(OC)cc3CCN2C(=O)C(C)C)cc1 (stereo unspecified) | 94 | 94 | 103 | nt
CCN1C(=O)NC(c2ccc(Cl)cc2)C2=C1CCCC2=O (stereo unspecified) | 103 | 79 | 100 | nt
O=C(Nc1nc(-c2ccc3c(c2)CCN3C(=O)C2CCCCC2)cs1)c1ccco1 | 98 | 77 | 136 | -17
COC(=O)c1ccc(CNC(=O)c2cc3c(s2)CCCC3)cc1 | 108 | 89 | nt | -20
CCc1c(C)nc2ncnn2c1NCc1cc(OC)ccc1OC | nt | nt | 103 | 3
CCN(Cc1ccccc1)S(=O)(=O)c1ccc(S(=O)(=O)N(Cc2ccccc2)Cc2ccccn2)cc1 | nt | nt | 99 | -16
Cc1ccc(C)c(NC(=O)Cn2cc(S(=O)(=O)Cc3cccc(Cl)c3)c3ccccc32)c1 | 112 | 91 | 105 | nt
Cc1cc(C)c(C#N)c(SCC(=O)c2cc(C)n(C3CCS(=O)(=O)C3)c2C)n1 (stereo unspecified) | 78 | 90 | nt | -28
